A488 autofl: compound fluoresces in the A488 spectral region. compound autofluorescence, A488 spectral region, dye equivalency; hits give high values. AID 591. 59,000 tested, 0.1% active. max dye equivalency, M; active = above 10 nM dye equivalent; inconclusive = 1 to 10 nM; inactive = 1 nM or less; about half of its hits are not listed in these tables;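 also: highest value over a series up to 38 µM; compound alone in buffer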
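Readout is A488 dye-equivalent concentration, calibrated by a per-plate six-point Alexa 488 series. Compounds in 100 mM Tris buffer pH 8.0 were incubated 15 min at room temperature. Plates were imaged using 480 nm excitation/540 nm emission filters.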
TSHR ag: TSH receptor (human) agonism. HEK293-CNG-TSHR cells (CNG channel as cAMP sensor), membrane potential dye, cAMP. Potency, µM (highest dose often 57.1 µM), without a hit: at the highest dose activation, usual class: activators. 73,000 tested, 0.48% active; active = well fitted activation curve of enough size with the parental cells flat; inconclusive = any curve in the parental cells; inactive = parental cells flat and receptor cells flat or falling; also: potency is read from the fitted curve at half-maximal effect; % of control where 0% means no effect; weak receptor curves with flat parental cells got no call and are not listed
Target sequence (P16473 whole entry, looked up): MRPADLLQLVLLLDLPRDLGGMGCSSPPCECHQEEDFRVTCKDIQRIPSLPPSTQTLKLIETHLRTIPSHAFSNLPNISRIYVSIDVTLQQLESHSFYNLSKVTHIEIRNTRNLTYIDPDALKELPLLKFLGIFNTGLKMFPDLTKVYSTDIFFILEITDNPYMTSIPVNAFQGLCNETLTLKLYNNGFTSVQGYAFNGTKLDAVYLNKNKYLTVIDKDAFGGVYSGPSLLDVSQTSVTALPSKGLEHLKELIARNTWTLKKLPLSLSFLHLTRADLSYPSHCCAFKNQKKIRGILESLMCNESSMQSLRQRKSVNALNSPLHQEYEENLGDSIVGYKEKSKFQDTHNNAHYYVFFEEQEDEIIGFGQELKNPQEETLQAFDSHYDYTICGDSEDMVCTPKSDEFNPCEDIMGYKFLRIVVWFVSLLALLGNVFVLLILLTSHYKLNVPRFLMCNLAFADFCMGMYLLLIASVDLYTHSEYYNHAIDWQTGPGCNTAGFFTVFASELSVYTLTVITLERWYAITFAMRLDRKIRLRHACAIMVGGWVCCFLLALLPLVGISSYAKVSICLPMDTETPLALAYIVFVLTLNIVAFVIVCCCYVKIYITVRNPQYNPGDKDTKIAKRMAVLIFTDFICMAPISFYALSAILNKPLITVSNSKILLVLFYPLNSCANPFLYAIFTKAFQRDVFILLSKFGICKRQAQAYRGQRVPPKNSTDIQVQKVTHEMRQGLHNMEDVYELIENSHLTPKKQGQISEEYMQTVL
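cAMP rise detected as CNG-channel membrane depolarization by fluorescent dye (emission 590 nm), 30 min after compound, following 60 min dye loading containing 100 uM RO 20-1724 at room temperature. Cells: TSHR/CNG HEK 293, with parental CNG HEK 293 as control.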
AID923: qHTS Assay for Allosteric/Competitive Inhibitors of Caspase-1: Spectroscopic Profiling in AFC Spectral Region; compound fluorescence, AFC spectral region (405/520 nm); almost no hit is shown here; 75,000 tested, 1.1% active; Potency, µM (titrated, usually from 57.5 µM), inactives show top-dose fluorescence increase, actives largely listed as activators; AID 923, 2007; active = well fitted activation curve with a large enough effect; inconclusive = small, poorly fitted or top-dose-only effect;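 also: potency is read from the fitted curve at half-maximal effect; 0% is about no effect; scaled to a free AFC standard on each plate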
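Titrations up to 57 uM read every 20 sec for 3 min (405/520 nm) with 50 nM caspase 1 and 5 uM Ac-WEHD-AFC, pH 7.5 HEPES buffer. Fluorescence-vs-time intercept gave baseline, scaled against on-plate AFC standard.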
A647 fluor: compound autofluorescence in A647 spectral region | Compound fluorescence, A647 channel (570/671 nm), Tris buffer | max dye-equivalent concentration, M | 59,000 tested, under 10 active | AID 592; active means above 1 µM dye equivalent; inconclusive means 0.1 to 1 µM; inactive means 0.1 µM or less;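 also: values scaled relative to a standard on each plate; highest value over a series up to 38 µM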
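Compound fluorescence was measured in 100 mM Tris buffer, pH 8.0, after 15 min at room temperature, using 570 nm excitation and 671 nm emission filters. Signal was normalized to a per-plate Alexa 647 standard curve and expressed as dye-equivalent concentration at each compound concentration.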
Resorufin fluor: resorufin region autofluorescence; Compound fluorescence, resorufin region 547/598 nm, buffer; hits give high values; max dye-equivalent concentration, M; 59,000 tested, 0.04% active; AID 588; active = above 10 nM dye equivalent; inconclusive = 1 to 10 nM; inactive = 1 nM or less; a few of its hits are not listed in these tables; also: highest value over a series up to 38 µM
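Read-out: intrinsic compound fluorescence at ex 547/em 598 nm after 15 min at RT in pH 8.0 Tris (100 mM). Values expressed as resorufin-equivalent concentration from per-plate standard series.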
Starred values were filed as active, the others as inactive; i = inactive; u = inconclusive; x = not tested or not shown; [ ] = dose if it differs, or a comment.

Start of the data: the first 7 entries as a preview:
SMILES	A488 autofl	TSHR ag	AID923	A647 fluor	Resorufin fluor
N#Cc1c(-c2cccs2)cc(-c2ccccn2)nc1N	i	5%	1.3%	2.7e-08	i
c1ccc(-n2c(Cc3cccnc3)nc3cnccc32)cc1	i	x	x	2.9e-08	i
COc1ccc(NC(=O)NC(C)c2ccncc2)cc1OC (centres undefined)	i	6%	-0.1%	1.5e-08	i
CC(=O)Oc1ccc2oc(=O)c3c(c2c1)CCCN3C(=O)CN1CCN(c2ncccn2)CC1	i	x	0.7%	3.5e-09	i
CCCOc1cccc(C2C(C(=O)c3ccco3)=C(O)C(=O)N2CCN(CC)CC)c1 (centres undefined)	i	2%	0.1%	1.1e-08	i
CCN(CC)CC(=O)Nc1ccc(C)cc1Br	i	-6%	-1.0%	1.1e-08	i
Cc1cc(=O)n(CC=C(Cl)Cl)c2ccccc12	i	15%	0.7%	2.7e-08	i

The whole of this part, from the first entry:
SMILES	A488 autofl	TSHR ag	AID923	A647 fluor	Resorufin fluor
N#Cc1c(-c2cccs2)cc(-c2ccccn2)nc1N	i	5%	1.3%	2.7e-08	i
c1ccc(-n2c(Cc3cccnc3)nc3cnccc32)cc1	i	x	x	2.9e-08	i
COc1ccc(NC(=O)NC(C)c2ccncc2)cc1OC (centres undefined)	i	6%	-0.1%	1.5e-08	i
CC(=O)Oc1ccc2oc(=O)c3c(c2c1)CCCN3C(=O)CN1CCN(c2ncccn2)CC1	i	x	0.7%	3.5e-09	i
CCCOc1cccc(C2C(C(=O)c3ccco3)=C(O)C(=O)N2CCN(CC)CC)c1 (centres undefined)	i	2%	0.1%	1.1e-08	i
CCN(CC)CC(=O)Nc1ccc(C)cc1Br	i	-6%	-1.0%	1.1e-08	i
Cc1cc(=O)n(CC=C(Cl)Cl)c2ccccc12	i	15%	0.7%	2.7e-08	i
Cc1csc(NC(=O)C2CCCN(S(=O)(=O)c3ccc(Br)s3)C2)n1 (centres undefined)	i	u	-2.5%	2.7e-08	i
O=C(CCN1C(=O)c2ccccc2C1=O)Nc1ccc(S(=O)(=O)NC2=NCCCCC2)cc1	i	u	-0.7%	4e-08	i
Cn1c(=O)cc(N2CCCCC2)[nH]c1=O	x	4%	-1.4%	x	x
CCOC(=O)C1=C(N)OC2=C(C(=O)CC(C)(C)C2)C1c1ccccc1OCC#N (centres undefined)	i	u	2.1%	2.1e-09	i
CN1C[C@H](C(=O)N[C@]2(C)O[C@]3(O)[C@H]4CCCN4C(=O)[C@H](Cc4ccccc4)N3C2=O)C[C@H]2c3cccc4[nH]cc(c34)C[C@@H]21	i	4%[25.6 µM]	2.3%[25.7 µM]	5.3e-08	i
CCn1c(SCC(=O)Nc2nc(C)c(C)s2)nnc1-c1ccco1	i	-2%	0.7%	2.2e-08	i
CCOC(=O)c1ccccc1NS(=O)(=O)c1ccccc1F	i	u	-2.7%	1.1e-08	i
N#Cc1ccccc1OCCN1C(=O)c2ccccc2C1=O	i	-5%	-1.4%	8.4e-09	i
CCOC(=O)c1cccc(N2C(=O)c3ccccc3S2(=O)=O)c1	i	13%	1.5%	1e-09	i
CCOC(=O)Nc1cc2c(cc1C(C)=O)OCO2	i	3%	-1.3%	2.6e-08	i
CCN(CC)S(=O)(=O)c1cc(C(=O)OCC(=O)c2ccc3c(c2)NC(=O)CO3)ccc1F	i	u	0.0%	1e-09	i
Ic1ccc(N2CCN(Cc3c[nH]c4ncccc34)CC2)cc1	i	x	-2.0%	1e-09	i
O=C(CN1CC(=O)Oc2ccccc21)NCc1ccco1	i	-1%	2.1%	6e-09	i
c1ccc(C(Cc2nc(-c3ccncc3)no2)c2ccccc2)cc1	i	u	-1.1%	1e-09	i
O=C(c1cc2nc(-c3ccco3)cc(C(F)(F)F)n2n1)N1CCN(c2ccc(F)cc2)CC1	x	-24%	3.9%	x	x
CCCCn1c(SCC(N)=O)nnc1-c1cc(OC)c(OC)c(OC)c1	i	5%	0.0%	2.3e-08	i
OC(CN1C2=NCCN2c2ccccc21)c1ccccc1 (centres undefined)	i	u	0.1%	2e-08	i
CC(C)C(=O)NC(C)C(c1cccs1)N1CCOCC1 (centres undefined)	i	-20%	-0.2%	1.5e-08	i
COc1ccc(C)cc1NC(=O)c1cnc2scc(C)n2c1=O	x	-2%	5.8%	x	x
O=C(Nc1ccccc1)N1CCC2(CC1)CCN(C(=O)c1ccncc1)CC2	i	u	5.8%	8.9e-09	i
COc1ccccc1N1CCN(C(=O)CN(c2ccccc2OC)S(=O)(=O)c2ccccc2)CC1	x	u	4.5%	x	x
O=C(O)C1CC=CCC1C(=O)N1CCCC1 (centres undefined)	i	-2%	4.5%	1e-09	i
CCN1CCCC1CN(Cc1cc2c(C)cc(C)cc2[nH]c1=O)C(=O)NC1CCCCC1 (centres undefined)	i	19%	2.1%	1e-09	i
Cc1ccccc1-c1nc(CN2CCC(C(=O)NCc3ccco3)CC2)c(C)o1	i	u	3.6%	3.1e-08	i
CCCCCn1c(CCCNC(=O)CC)nc2ccccc21	x	11%	-0.7%	x	x
CC(C)(C)NCC(O)COc1ccccc1C(C)(C)C (centres undefined)	i	9%	-1.1%	9.9e-09	i
COc1cc(C(O)P(=O)(OC2CCCCC2)c2ccc(N(C)C)cc2)cc(OC)c1OC (centres undefined)	i	5%	1.0%	2.6e-09	i
CCOC(=O)c1ccc(NC(=O)CCc2nc(-c3ccc(Cl)cc3)no2)cc1	i	2%[11.4 µM]	0.2%	2.2e-09	i
COc1ccc(CNc2ncnc3ccc(-c4ccccc4OC)cc23)c(OC)c1	i	u	2.0%	2e-08	i
Cc1cc(C)n(C(=O)CCCCCC(=O)n2nc(C)cc2C)n1	i	7%	1.7%	3.5e-08	i
C/C=C/Cn1c(Br)nc2c1c(=O)n(C)c(=O)n2C	i	0%	1.6%	2.9e-08	i
COc1ccc(C(=O)/C=C/N2CCCCC2)cc1OC	x	10%[11.4 µM]	1.3%	x	x
O=C(CN1CCC(c2nc3ccccc3s2)CC1)NCc1cccs1	i	15%[11.4 µM]	2.1%	5.6e-09	i
CCC(C)NC(=O)NC1C(NC(=O)NC(C)CC)N(C)C(=O)N1C (centres undefined)	x	-2%	0.8%	x	x
COc1cc(C2C(C#N)=C(N)OC3=C2C(=O)CCC3)ccc1OC(=O)N1CCOCC1 (centres undefined)	i	0%	0.6%	5e-09	i
Cc1nc(NC2CCCCC2)c2nc(-c3ccccc3)n(CCN(C)C)c2n1	x	u	-1.7%	x	x
Cc1cc(C(=O)COC(=O)c2ccc3c(c2)OCO3)c(C)n1Cc1cccs1	i	u	2.0%	2.6e-08	i
Cc1ccc(C)c(Cn2nnc3c(=O)[nH]c(C4CCN(C(=O)c5cccs5)CC4)nc32)c1	i	28%	0.9%	9e-09	i
CC(CCc1ccccc1)NC(=O)c1ccncc1 (centres undefined)	i	-7%	0.1%	1e-09	i
Oc1[nH]c2ccccc2c1C=Nc1ccc2c(c1)OCO2	x	-13%	-1.1%	x	x
CCOCCCNC(=O)N1CCOCC1	i	-3%	-0.2%	5.6e-09	i
COc1ccccc1S(=O)(=O)Cc1ccc(C(=O)NCCN(C)C)o1	x	-4%	0.8%	x	x
Oc1cc(O)c2c(c1)O[C@@H](c1ccc(O)c(O)c1)[C@H](O[C@@]1(c3cc(O)c(O)c(O)c3)Oc3cc(O)cc(O)c3[C@H](O)[C@@H]1O)C2	i	8%[11.4 µM]	-0.4%[11.5 µM]	4.8e-08	i
COc1cc(OC)c2cc(-c3ccncc3)cnc2c1	x	15%	16%	x	x
Cn1c(=O)c2c(nc(NCc3ccc4c(c3)OCO4)n2Cc2ccc(F)cc2)n(C)c1=O	i	x	x	5.9e-08	i
O=C(Cn1ncc2c1-c1ccccc1OC2)Nc1ccc(Cl)cn1	x	28%	-2.1%	x	x
COc1ccccc1NS(=O)(=O)c1ccc(C(=O)OCC(=O)NCc2ccco2)cc1	i	x	-0.1%	1e-09	i
O=C(CNS(=O)(=O)c1cccc2nsnc12)NCc1ccc(Cl)cc1	i	-8%	1.7%	1.4e-09	i
O=S(=O)(NC1CCCC1)c1ccc(S(=O)(=O)N(Cc2cccs2)CC2CCCO2)cc1 (centres undefined)	i	u	1.3%	4.3e-08	i
CCOC(=O)N1CCN(C(=O)CN(c2cc(Cl)ccc2OC)S(=O)(=O)c2ccccc2)CC1	x	19%	2.1%	x	x
CS(=O)(=O)N1CCC2(CCN(c3ccccn3)CC2)CC1	i	u	-0.9%	2.3e-09	i
COc1cccc(C(=O)N(CN2CCCC2=O)c2cccc(Cl)c2)c1OC	i	-3%	0.0%	4.2e-08	i
Cc1cc(C(=O)Nc2sc(C)c(C)c2C#N)no1	i	u	1.3%	2.6e-09	i

The results go on:
SMILES	A488 autofl	TSHR ag	AID923	A647 fluor	Resorufin fluor
O=P(O)(COc1ccccc1)COc1ccccc1	x	2%	0.0%	x	x
Cc1cc2ccccc2c(=O)n1CC(=O)N1CCN(c2cccc(Cl)c2)CC1	i	u	1.1%	1.3e-09	i
C=CCn1c(NC(C)c2cc(Cl)ccc2O)nc2ccccc21 (centres undefined)	x	-3%	-2.0%	x	x
O=C(NCCCCCNC(=O)c1cccnc1)c1cccnc1	i	-5%	-0.8%	1e-09	i
COc1cccc(-n2nnc3c(=O)n(CC(=O)N4CCCc5ccccc54)cnc32)c1	i	30%	0.8%	1e-09	i
COCCN(CCOC)C(=O)c1cc2sc3ccccc3c2s1	i	u	-0.1%	6.2e-09	i
O=C(c1ccc2c(c1)OCO2)n1nnc2ccccc21	x	1%	-1.5%	x	x
O=C(NCCCN1CCCCCC1)c1ccc2c(c1)NC(=O)C(N1CCOCC1)S2 (centres undefined)	i	-2%	1.6%	1e-09	i
CN(C)C(CNC(=O)c1cccc(S(=O)(=O)N2CC3(C)CC2CC(C)(C)C3)c1)c1ccco1 (centres undefined)	i	7%	0.2%	8.1e-09	i
Nn1c(SCC(=O)N2CCCc3ccccc32)nnc1-c1ccccc1	i	-16%	1.1%	1.4e-09	i
CC1(C)CCC=[N+]1[O-]	i	u	-3.2%	4.4e-08	i
O=C(O)c1ccc(CSc2nnc(COc3ccc(Cl)cc3Cl)o2)cc1	x	u	1.9%	x	x
Cc1ccc(C)c(NC(=O)CSc2nnc(-c3ccncc3)n2N)c1	i	1%[11.4 µM]	0.5%	8.1e-09	i
Cc1ccc(O)c(C(=O)c2cnn(C(=O)Cc3csc(C)n3)c2)c1	i	-10%	0.2%	6.4e-09	i
CC1=C(C#N)C(=O)NC(C)(C)C1	i	-1%	1.3%	5.7e-08	i
COc1cccc(C(N)CC(=O)O)c1 (centres undefined)	x	12%	-0.7%	x	x
COC(=O)CCCC(=O)N1CCOCCN(C(=O)CCCC(=O)OC)CCOCC1	i	5%	-0.9%	1e-09	i
Cn1c(NCc2ccccc2)nc2c1c(=O)n(Cc1ccccc1)c(=O)n2C	i	x	x	2.3e-09	i
CC1(C)CC(=O)C2=C(C1)Oc1ncn(Cc3ccco3)c(=N)c1C2c1ccccc1 (centres undefined)	i	-25%	-1.3%	6.8e-09	i
Cc1ccnc(NC(=O)COc2ccc3oc4c(c3c2)CCCC4)c1	i	u	0.6%	4.1e-08	i
Cn1c(=O)c2c(SCC(=O)N3CCCc4ccccc43)nc(CC(C)(C)C)nc2n(C)c1=O	x	1%	5.0%	x	x
COC(=O)c1ccc(C#CC(NP(=O)(c2ccccc2)c2ccccc2)c2ccccc2)cc1 (centres undefined)	x	u	5.5%	x	x
O=C1c2ccccc2C(=O)N1Cc1nc(-c2cccnc2)no1	i	1%	-0.5%	2.5e-08	i
COC(=O)c1ccc(CSc2nc3ccccc3s2)o1	i	u	1.2%	1e-09	i

Bioassay records from PubChem.

The list is partial. The share of hits here may be higher or lower than overall.
